# KCNQ2 block: KCNQ2 channel blockers in CHO-K1 cells – cell-based, FluxOR thallium flux, B-score, primary screen (AID 2156); O88943; 20 min; hits give low values; only compounds with negative scores are shown here; some inactives read as strong as hits; 310,000 compounds, 1.1% hits; B-score at 10 µM;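 active = fluorescence ratio B-score at most minus 3 library SDs, with starting brightness B-score within 2 library SDs, cut at about -5.5 in these data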
# Target sequence (O88943 whole entry, looked up): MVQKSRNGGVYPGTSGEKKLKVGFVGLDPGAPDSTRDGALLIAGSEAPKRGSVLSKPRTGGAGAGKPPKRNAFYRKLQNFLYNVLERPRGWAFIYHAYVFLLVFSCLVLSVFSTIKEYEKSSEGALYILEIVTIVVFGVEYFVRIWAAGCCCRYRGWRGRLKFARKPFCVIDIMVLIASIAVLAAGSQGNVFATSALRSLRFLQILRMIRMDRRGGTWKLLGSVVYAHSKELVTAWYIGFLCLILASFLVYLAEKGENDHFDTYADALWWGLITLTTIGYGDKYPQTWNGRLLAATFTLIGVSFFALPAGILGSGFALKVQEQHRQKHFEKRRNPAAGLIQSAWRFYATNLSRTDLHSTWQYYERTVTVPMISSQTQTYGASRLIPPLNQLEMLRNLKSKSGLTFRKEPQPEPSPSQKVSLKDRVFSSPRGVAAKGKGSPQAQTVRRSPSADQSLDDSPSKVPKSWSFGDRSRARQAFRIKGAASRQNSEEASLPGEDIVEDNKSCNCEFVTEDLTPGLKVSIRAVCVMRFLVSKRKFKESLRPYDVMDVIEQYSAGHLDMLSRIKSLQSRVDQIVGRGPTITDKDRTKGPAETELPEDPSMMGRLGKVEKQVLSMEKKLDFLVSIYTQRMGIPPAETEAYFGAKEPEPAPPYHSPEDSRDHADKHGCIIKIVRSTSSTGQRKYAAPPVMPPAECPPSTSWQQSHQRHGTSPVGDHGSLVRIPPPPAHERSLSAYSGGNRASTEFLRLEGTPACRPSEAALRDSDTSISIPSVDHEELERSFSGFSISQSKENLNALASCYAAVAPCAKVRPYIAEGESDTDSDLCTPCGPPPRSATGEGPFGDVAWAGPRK
# KCNQ2 block baseline: recorded beside KCNQ2 block, whose call it bears; B-score; measured here: initial fluorescence intensity artifact check;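 brightness before thallium and not channel activity; 0 = typical well and far values either way flag optical interference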
# * = called active by the depositor; i = inactive. These rows are one share of the data; the hit share may differ from the screen's.
SMILES,KCNQ2 block,KCNQ2 block baseline
COC(=O)CSc1nc(C)cc(C)n1,i,0.08
Cc1ccc2c(CN3CC(C)CC(C)C3)cc(=O)oc2c1 (stereo not given),i,1.6
COc1ccc(N2CCN(c3nc4c(c(=O)n(C)c(=O)n4C)n3Cc3ccccc3)CC2)cc1,i,1.1
COc1ccc(N=Cc2c(O)ccc3ccccc23)cc1,i,-0.13
CCOC(=O)c1c(N)nn(C(=O)C(C)C)c1-c1ccc(OC)cc1,i,0.15
CCOC(=O)N1CCN(C(=O)c2cnn3c(C)c(Cc4ccc(C)cc4)c(C)nc23)CC1,i,1.2
CCN1C(=O)C(CC(=O)Nc2ccc(F)cc2)N(CCc2ccc(OC)cc2)C1=S (stereo not given),-6.7*,-1.9*
Clc1ccc(-n2cccc2/C=N/n2cnnc2)cc1,i,-1.2
CCOC(=O)CSc1nc2cc3c(cc2cc1C)OCO3,i,0.1
CC1(C)C(=O)Nc2ccccc2N1C(=O)COC(=O)C12CC3CC(CC(O)(C3)C1)C2,i,0.14
COc1cccc(NC(=O)C2CSC3(C)CCC(=O)N23)c1 (stereo not given),i,-2.4
CC1=N/C(=C\c2ccccc2Cl)C(=O)O1,i,0.67
CCC1NC(=S)NC(C)=C1C(=O)c1ccccc1 (stereo not given),i,1.4
CC1CCCN(C(=O)CCS(=O)(=O)Cc2ccccc2)C1 (stereo not given),i,1.8
COc1ccc(S(=O)(=O)N2CCC(C(=O)NCCC(=O)NCc3ccncc3)CC2)cc1,i,0.51
CCCC(=O)Nc1c2c(nn1-c1ccc(C)cc1C)CSC2,i,-1.9
N#CC1=C(N)N(c2ccccc2)C(c2ccco2)C1(C#N)C#N (stereo not given),i,-0.86
O=C(CSc1nnc(-c2c[nH]c3ccccc23)o1)c1ccccc1,i,-0.46
CC(C)(C)OC(=O)N[C@@H](Cc1ccccc1)C(=O)N1CCC(C(=O)N[C@@H](CCC(N)=O)C(=O)O)CC1,i,-0.09
O=C(O)c1cnc(-c2ccccc2)nc1Oc1ccccc1,i,-0.07
NNC(=O)CS(=O)(=O)c1ccc(Cl)cc1,i,0.56
CCCN(CC1CC1)c1nc(C)nc(Nc2c(Cl)cc(Cl)cc2Cl)c1Cl,-5.6*,-0.67*
CC(C)[C@H](CO)Nc1nc(Nc2ccc(Cl)c(C(=O)O)c2)c2ncn(C(C)C)c2n1,i,-1.2
COc1ccc(NC(=O)CN(c2ccc(C)cc2)S(C)(=O)=O)c(OC)c1,i,-1.2

# Some of these compounds in order of SMILES length, rising.
SMILES,KCNQ2 block,KCNQ2 block baseline
CC1=N/C(=C\c2ccccc2Cl)C(=O)O1,i,0.67
N#CC1=C(N)N(c2ccccc2)C(c2ccco2)C1(C#N)C#N (stereo not given),i,-0.86
COc1ccc(S(=O)(=O)N2CCC(C(=O)NCCC(=O)NCc3ccncc3)CC2)cc1,i,0.51

# Next section.
SMILES,KCNQ2 block,KCNQ2 block baseline
CCCCn1c(N)c(N(CC(C)C)C(=O)CSCc2c(C)noc2C)c(=O)[nH]c1=O,i,2.3
COc1ccc(OCc2cc(C(=O)N3CCN(C4CCCC4)CC3)no2)c(Cl)c1,i,-0.48
O=C(c1cccc(F)c1)N(Cc1nc2ccccc2c(=O)[nH]1)C1CCCC1,i,-0.02
CC(=O)c1csc(Nc2ccccc2Cl)n1,i,3.3
Cc1ccc(CN2CCC(CO)(CC3CCCCO3)CC2)o1 (stereo not given),i,-0.16
COc1ccc(-c2nc(CS(=O)(=O)CC(=O)Nc3ccc(Cl)cc3)c(C)o2)cc1,i,-0.09
CCNc1ccc(S(=O)(=O)N(C)C)cc1NCC(=O)Nc1ccccc1F,i,-0.48
Cc1ccc(CSc2nnc(C)c(=O)[nH]2)cc1,i,-0.42
CCSc1nnc(NC(=O)C2CC=CCC2C(=O)O)s1 (stereo not given),i,-1.7
N#Cc1nc(-c2ccccc2Cl)oc1N1CCN(C(=O)c2ccco2)CC1,i,-0.74
O=C(N/C(=C/c1ccccc1Cl)C(=O)N1CCCCC1)c1ccco1,i,-0.43
FC(F)(F)c1nnc(-c2ccccc2)nc1Sc1ccccc1,i,2.7
COc1cccc(/C=C/C(=O)Nc2ccc3nc4n(c(=O)c3c2)CCCC4)c1OC,i,0.98
CCS(=O)(=O)Nc1ccc2c(c1)N(C(C)=O)c1ccccc1CC2,i,-0.49
O=C(c1cc(COc2cccc3cnccc23)on1)N1CCC(c2ccccc2Cl)C1 (stereo not given),i,1.4
COc1ccc(CNc2nc3nc(-c4ccccc4)cc(=O)n3[nH]2)cc1OC,i,0.09
O=C(CSc1ncnc2ccccc12)c1ccc2c(c1)OCCO2,i,-1.6
CN(CC(=O)Nc1ccc(F)cc1)C(=O)COC(=O)CNC(=O)c1ccc(Cl)cc1Cl,i,-0.25
NS(=O)(=O)c1ccc(CNS(=O)(=O)c2cccc3nonc23)cc1,i,3.4
COC(=O)c1sc(=S)n(-c2ccc(Cl)cc2)c1C,i,1.1
O=C(NNC(=O)c1ccc2c(c1)OCO2)NC1CCCCC1,i,-0.14
CCOC(=O)C1=C(CSc2nc3c(cc2C#N)CN(C)CC3)OC(N)=C(C#N)C1c1ccc(Cl)cc1 (stereo not given),i,-0.35
Cc1ccc(-n2ncc(C(=O)NCC3CCN(C4CCCC4)C3)c2C2CCN(C(=O)OC(C)(C)C)CC2)cc1 (stereo not given),i,0.66
COc1ccc2c(c1)C(=O)N(c1ccccc1C)C(=O)C2(C)C,i,1.3
COc1ccc(N2C(=O)c3ccccc3S2(=O)=O)cc1,i,-0.32
CC(C)NC(=O)N1CCC(c2nc3ccccc3s2)CC1,i,0.18
COc1cc(NC(=O)COC(=O)/C=C/c2c(C)nn(-c3ccc(F)cc3)c2Cl)cc(OC)c1,i,-1.2
O=C(NCCC1CCCCN1S(=O)(=O)c1cccs1)C(=O)Nc1ccccc1F (stereo not given),i,-0.67
Cc1ncoc1C(=O)N1CCCC(CCC(=O)NCc2ccccc2F)C1 (stereo not given),i,-0.6
CC(C)OC(=O)CSc1nc2cccnc2n1-c1ccc(F)cc1,i,0.99
COC(=O)c1ccccc1NC(=O)CSc1ccccn1,i,0.07
COc1ccc(C(CC(=O)NCc2ccco2)c2ccc(F)cc2)cc1 (stereo not given),i,0.05
CCc1ccc(-c2cc(C)no2)cc1S(=O)(=O)N1CCOc2ccc(C)cc21,i,-2
COc1ccccc1C1=Nn2c(COc3ccccc3)nnc2SC1,i,3.4
O=C(O)CCn1c(=O)n(CCC(=O)O)c(=O)n(CCC(=O)O)c1=O,i,-1.5
C=CC[C@]12C=C(OC)C(=O)C=C1O[C@@H](c1ccc3c(c1)OCO3)[C@H]2C,i,1.9
CCOC(=O)N1CCC2(CC1)CC(=O)c1c(ccc3oc(C(=O)O)c(C)c13)O2,i,-0.07
O=C(Nc1ccc(F)cc1)c1nn(-c2ccccc2)c(=O)cc1Cl,i,-1.1
Cc1nc2c(ccc3c2ccc2nc(C)sc23)s1,i,-0.24
Cc1nn(C)cc1/C=N/NC(=O)Cn1cncn1,i,-0.04
Cc1ccc(N(C(=O)Cn2nnc(-c3cccs3)n2)C(C(=O)NC2CCCC2)c2ccncc2)cc1 (stereo not given),i,1.5
Cc1ccccc1CN(c1ccc(C(=O)NCc2ccccn2)cc1)S(C)(=O)=O,i,0.31
CCn1c(SCC(=O)c2ccc(Cl)cc2)nnc1C(C)C,i,-0.46
O=C(Nc1cc(C(F)(F)F)ccc1N1CCOCC1)c1ccc2ccccc2n1,i,-0.48
CN(C)CCCn1c(SCc2c(Cl)cccc2Cl)nnc1-c1ccncc1,i,2.5
COc1ccc(NC2CCCN(C(=O)c3csc(C(C)C)n3)C2)cc1 (stereo not given),i,0.58
O=C(CSCc1ccc(Br)cc1)Nc1ccc(S(=O)(=O)N2CCOCC2)cc1,i,-0.07
Cc1ccc(/C=C/C(=O)Nc2ccc([N+](=O)[O-])cc2)o1,i,-0.19
CCOCCCNCC(=O)NC1(C)C2CCC(C2)C1(C)C (stereo not given),i,0.42
O=C(NCCCN1CCOCC1)c1cc2c(s1)CCC2,i,0.41
S=C(NCc1ccco1)Nc1ccc(Br)cn1,i,3
Cc1nc2ccc3nc(NC(=O)C4COc5ccccc5O4)sc3c2s1 (stereo not given),i,0.42
CC(C)(C)NC(=O)C(c1ccc(O)cc1)N(C(=O)CCC(=O)Nc1nccs1)c1ccccc1F (stereo not given),i,-0.22
O=S(=O)(c1ccccc1)c1cnc(-c2cccnc2)nc1-c1ccc(Cl)cc1Cl,i,-1.6
O=C(Cc1coc2cc3c(cc12)CCC3)OCc1cc(=O)n2c(n1)sc1ccccc12,i,-1.1
CC(C)CCN1CC(=O)N2[C@@H](Cc3c([nH]c4ccccc34)C2(C)C)C1=O,i,-1.3
COc1ccc(-c2cc(-n3c(C(F)(F)F)nc4ccccc43)n(CCC#N)n2)cc1,i,0.89
O=C(Nc1ccccc1)Nc1cccc(NC(=O)Nc2ccccc2)c1F,i,0.62
CCN(CC(=O)NCc1ccc(Cl)cc1)C(=O)c1cc(S(=O)(=O)NCc2ccccc2)ccc1C,i,-0.51
O=C(Nc1ccc(F)cc1F)c1ccccc1-c1ccccc1,i,-0.89
# The list continues.
SMILES,KCNQ2 block,KCNQ2 block baseline
CCS(=O)(=O)Nc1cc(C(=O)O)ccc1C,i,-0.2
COCCn1c(SCC(=O)N2CCCc3ccccc32)nnc1-c1ccco1,i,-0.54
CCOc1ccc(Cc2onc3c2C(=O)CC(C)(C)C3)cc1OCC,i,0.09
Cc1nc(N2CCC(C)CC2)c2c(C)c(C(=O)Nc3ccc(C)c(F)c3)sc2n1,i,0.76
COc1ccc(NC(=O)NCc2ccc3c(c2)OCO3)cc1OC,i,0.17
CCCc1cc(=O)[nH]c(SCc2ccc(C#N)cc2)n1,i,0.57
CCOc1ccc(C(=O)NCc2ccco2)cc1OCC,i,-1.1
Cc1ccc2c(C)c(C(=O)N(C)C(C)c3ccon3)oc2c1C (stereo not given),i,-0.91
CCOc1ccccc1/C=N/Nc1ccnc(=O)[nH]1,i,0.81
CCOC(=O)c1c(NC(=O)Nc2cccc(Cl)c2)sc(C)c1C,i,-0.16
CCCN1CC23C=CC(O2)C(C(=O)O)C3C1=O (stereo not given),i,0.07
CN(c1ccccc1)S(=O)(=O)c1ccc(C(=O)N2CCCC(C(F)(F)F)C2)cc1 (stereo not given),i,3.8
O=C(/C=C/c1ccccc1[N+](=O)[O-])N1CCc2ccccc2C1,i,-0.52
CCOc1ccc(-c2c(C(=O)N/N=C/C3CC=CCC3)nnn2-c2nonc2N)cc1 (stereo not given),i,-0.6
CCOC(=O)C1CCN(CCC(=O)Nc2ccc(Cl)cc2)CC1,i,0.99
Fc1cccc(C2CC(c3cccc(Br)c3)Nc3nnnn32)c1 (stereo not given),i,-0.14
Cc1ccc(NC(=O)Cn2c(CCC(=O)O)ccc2-c2cccs2)cc1,i,1.1
C=CCNC(=S)Nc1ccccc1-c1nnc2n1CCCCC2,i,-0.11
Cc1ccc(N2CCN(/N=C/c3c(C)nn(-c4ccccc4)c3Cl)CC2)cc1,i,-0.4
Cc1ccc(C(O)C(=O)c2ccco2)cc1 (stereo not given),i,0.66
Cc1cc(C)n(C(C)CNS(=O)(=O)c2ccc(Cl)cc2)n1 (stereo not given),i,1.6
COc1ccc(NCc2nnc(SCC(=O)Nc3cccc(C)c3)o2)cc1,i,3
O=C(CSc1ccc([N+](=O)[O-])cc1)Nc1cccc(S(=O)(=O)Nc2ccccc2F)c1,i,-0.93
COc1cccc(CN(C)C(=O)C23CC4CC(CC(C4)C2)C3)c1,i,-0.16
NNC(=O)CNc1cccc(Br)c1,i,-0.74
COc1ccc(Cc2c(O)nc(SCC(=O)c3ccc(OC)cc3)[nH]c2=O)cc1,i,2.8
O=C(Nc1ccccc1C(=O)O)c1cccc(NC(=O)c2ccco2)c1,i,1
COc1ccccc1NC(=S)N1CCN(C(=O)C2CCCO2)CC1 (stereo not given),i,-0.35
OCC1CCCN(C2CCN(Cc3nc(Cc4cccc(C(F)(F)F)c4)no3)CC2)C1 (stereo not given),i,2.5
CCN(CC(=O)Nc1ccc(NC(C)=O)cc1)C(=O)c1cccc(S(=O)(=O)N2c3ccccc3CC2C)c1 (stereo not given),i,-0.65
Cc1ccccc1Cn1nc(C)c(NC(=O)c2noc3c2CC(C(C)(C)C)CC3)c1C (stereo not given),i,2.8
CC1CN(C(=O)Cc2ccc(-c3ccccc3)cc2)CC(C)O1 (stereo not given),i,-0.98
O=C(NCCCn1ccnc1)c1cccc(Cl)c1,i,0.8
CCNC(=S)NNc1nc(N2CCCCC2)nc(N2CCOCC2)n1,i,-2
CC(Oc1ccc(F)cc1)C(=O)Nc1ccc(N2CCOCC2)cc1N1CCOCC1 (stereo not given),i,0.02

# 14 entries from above, arranged by number of heavy atoms, smallest number first:
SMILES,KCNQ2 block,KCNQ2 block baseline
S=C(NCc1ccco1)Nc1ccc(Br)cn1,i,3
Cc1nc2c(ccc3c2ccc2nc(C)sc23)s1,i,-0.24
COc1cccc(NC(=O)C2CSC3(C)CCC(=O)N23)c1 (stereo not given),i,-2.4
Cc1ccc(CN2CCC(CO)(CC3CCCCO3)CC2)o1 (stereo not given),i,-0.16
CCOC(=O)c1c(N)nn(C(=O)C(C)C)c1-c1ccc(OC)cc1,i,0.15
CCNC(=S)NNc1nc(N2CCCCC2)nc(N2CCOCC2)n1,i,-2
O=C(Nc1ccccc1C(=O)O)c1cccc(NC(=O)c2ccco2)c1,i,1
Cc1ccc(N2CCN(/N=C/c3c(C)nn(-c4ccccc4)c3Cl)CC2)cc1,i,-0.4
COc1ccc(-c2cc(-n3c(C(F)(F)F)nc4ccccc43)n(CCC#N)n2)cc1,i,0.89
CC(Oc1ccc(F)cc1)C(=O)Nc1ccc(N2CCOCC2)cc1N1CCOCC1 (stereo not given),i,0.02
COc1ccc(S(=O)(=O)N2CCC(C(=O)NCCC(=O)NCc3ccncc3)CC2)cc1,i,0.51
CC(C)(C)NC(=O)C(c1ccc(O)cc1)N(C(=O)CCC(=O)Nc1nccs1)c1ccccc1F (stereo not given),i,-0.22
CC(C)(C)OC(=O)N[C@@H](Cc1ccccc1)C(=O)N1CCC(C(=O)N[C@@H](CCC(N)=O)C(=O)O)CC1,i,-0.09
CCN(CC(=O)Nc1ccc(NC(C)=O)cc1)C(=O)c1cccc(S(=O)(=O)N2c3ccccc3CC2C)c1 (stereo not given),i,-0.65

# Source: PubChem (Johns Hopkins Ion Channel Center)
